Screening data: PubChem, National Center for Advancing Translational Sciences (NCATS)
NPR1 antag: human Npr1 receptor antagonism; P16066; HEK293 hNpr1 GloSensor cGMP, ANP-stimulated luminescence; Potency, µM (series often up to 46.3 µM), without a hit: at the highest dose activity change, negative = inhibition, usual class: inhibitors; 76,000 compounds, 1.6% hits; AID 1347048; active = well fitted inhibition curve with a large enough effect; inconclusive = small, poorly fitted or top-dose-only effect; inactive = no such curve, though single readings can be large or run the other way;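 note: nearly all actives have a fitted effect of over 60% in size; nearly all hits also lower the signal before the agonist is added; a reference antagonist and vehicle were the controls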
Target sequence (P16066 whole entry, looked up): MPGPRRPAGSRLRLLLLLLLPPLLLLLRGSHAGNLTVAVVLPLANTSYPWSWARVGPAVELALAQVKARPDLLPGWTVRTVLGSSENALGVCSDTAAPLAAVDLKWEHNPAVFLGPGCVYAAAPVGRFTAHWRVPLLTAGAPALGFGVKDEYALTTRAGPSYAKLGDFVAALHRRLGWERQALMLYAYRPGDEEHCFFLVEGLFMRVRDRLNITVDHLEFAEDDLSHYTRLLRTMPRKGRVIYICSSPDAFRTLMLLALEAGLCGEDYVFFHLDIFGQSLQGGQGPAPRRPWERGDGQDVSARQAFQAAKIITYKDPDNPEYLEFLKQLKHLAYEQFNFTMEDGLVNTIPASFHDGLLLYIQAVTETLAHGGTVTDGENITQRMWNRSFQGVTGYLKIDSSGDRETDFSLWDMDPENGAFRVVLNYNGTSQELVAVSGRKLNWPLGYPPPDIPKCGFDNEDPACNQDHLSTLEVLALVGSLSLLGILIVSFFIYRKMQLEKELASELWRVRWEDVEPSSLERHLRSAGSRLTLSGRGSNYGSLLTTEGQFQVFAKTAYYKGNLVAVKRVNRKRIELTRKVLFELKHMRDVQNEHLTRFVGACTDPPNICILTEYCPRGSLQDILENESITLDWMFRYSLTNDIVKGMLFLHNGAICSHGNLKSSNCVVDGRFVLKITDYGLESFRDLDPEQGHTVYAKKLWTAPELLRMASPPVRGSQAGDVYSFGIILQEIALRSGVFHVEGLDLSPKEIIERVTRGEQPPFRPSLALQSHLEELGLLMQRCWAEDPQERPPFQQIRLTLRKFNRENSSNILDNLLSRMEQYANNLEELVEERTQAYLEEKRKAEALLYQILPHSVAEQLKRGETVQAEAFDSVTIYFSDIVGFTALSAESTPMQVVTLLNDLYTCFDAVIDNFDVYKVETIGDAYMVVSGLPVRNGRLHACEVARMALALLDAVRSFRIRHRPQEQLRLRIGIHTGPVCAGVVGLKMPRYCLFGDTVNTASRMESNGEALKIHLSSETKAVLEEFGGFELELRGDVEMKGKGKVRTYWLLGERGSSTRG
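HEK293 cells stably expressing human Npr1 and cGMP GloSensor pGS-40F, loaded 2 h with 2% GloSensor reagent, given compound 30 min at room temperature. Luminescence read before and 20 min after 0.1 nM hNppA.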
Starred values were filed as active, the others as inactive; ? = inconclusive; [ ] = dose if it differs, or a comment. % is set by controls: 0 for no effect and ±100 for the full control effect; potency is the fitted concentration of half-maximal effect. An excerpt, so the mix of outcomes need not match the whole.

The opening two compounds, to show the layout:
structure,NPR1 antag
CCCCNC(=O)c1cccc2c1CCN2S(=O)(=O)c1ccccc1,-16%
CC(=O)Nc1ccc(CN2CCC(c3nc4ccc(F)cc4c(=O)[nH]3)CC2)cc1,8%

The listing (from the top)
structure,NPR1 antag
CCCCNC(=O)c1cccc2c1CCN2S(=O)(=O)c1ccccc1,-16%
CC(=O)Nc1ccc(CN2CCC(c3nc4ccc(F)cc4c(=O)[nH]3)CC2)cc1,8%
COc1ccc(NC(=O)C2CN(S(=O)(=O)C3CC3)CC23CCCCC3)cc1 (configuration not stated),-17%
CC(=O)N[C@H]1CCN(C(=O)C[C@@H]2[C@H](O)CCC3[C@](C)(CO)[C@H](OC(=O)Nc4cccc(C(F)(F)F)c4)CC[C@]32C)C1 (some centres not stated),1%
O=C(c1ccc2[nH]ccc2c1)N1CCCN(c2cc(-c3ccc(F)cc3)[nH]n2)CC1,?
O=C([C@@H]1C[C@H](F)CN1C(=O)c1cccs1)N1CCCCC1,-6%
CCC(NC(=O)c1cnc(-c2ccccc2)nc1-c1ccncc1)c1ccc(OC)cc1 (configuration not stated),-2%
NC(=O)c1ccc(NC(=O)Cn2nc3c(cc2=O)CCCCC3)cc1,-2%
COc1ccc(CC(=O)N2CCC3(CC2)CC(O)CCO3)cc1 (configuration not stated),-1%
CCNC(=O)N(C1CC1)C1CCOC2(CCN(C(=O)Nc3ccc(OC)cc3)CC2)C1 (configuration not stated),0%
CCn1ncc(N2CCC(NC(=O)CCOC)CC2)cc1=O,6%
CC[C@H]1CN(C(=O)C2CC2)CC[C@H]1CC(=O)NC1CC1,1%[70.6 µM]
CCc1noc(-c2ccn3c(CNC(=O)CCCc4ccccc4)nnc3c2)n1,6%
COc1cccc(S(=O)(=O)N2CCC(Cc3nncn3C(C)C)C2)c1 (configuration not stated),0%
CCC(CNc1nc(CCN)nc2ccccc12)N1CCN(C)CC1 (configuration not stated),7%
Cc1nn(CCC#N)c(C)c1[C@@H]1C=C[C@@H](NC(=O)NCc2ccccc2)C1,1%[70.6 µM]
COC(=O)c1cc(CN2CCCC3(CCNC3)C2)ccc1O (configuration not stated),-4%
COc1ccc(S(=O)(=O)N2CC[C@H]3NC(=O)N(c4ccc(C)cc4)C(=O)[C@H]32)cc1,3%[70.6 µM]
Cc1ncc(C(=O)N2C[C@@H](C(=O)O)[C@H](c3ccc4c(c3)OCO4)C2)c(C)n1,2%
O=C(COc1ccccc1)N1CCC2(CC1)CC(N1CCN(c3ccccc3)CC1)CCO2 (configuration not stated),-5%
COCCCn1c(C)cnc1C1CCN(C(=O)COc2ccccc2)C1 (configuration not stated),-2%
COc1cccc([S+](=O)([O-])NC[C@@H]2CC[C@H]3C[C@@H]2C3(C)C)c1,9%[70.6 µM]
O=C(Cc1[nH]nc2ccccc12)N[C@H](c1ccc2c(c1)CCO2)C1CC(O)C1 (some centres not stated),-8%
FC1(F)C[C@@H](c2nnc(C3CC3)o2)N(C2CCSCC2)C1,-4%
CC(C)c1ccc(Nc2n[nH]c(C(O)C3CC3)n2)cc1 (configuration not stated),-17%[70.6 µM]
O=C(CN1C(=O)C(c2ccccc2)=NC12CCCCCC2)NC1CCCC1,0%
COc1ccc(Nc2cc3c(cn2)CN(CCc2ccccc2)CCN3)cc1,-5%[70.6 µM]
O=C1c2c(-c3nc(-c4ccsc4)no3)nnn2CCN1Cc1cccc(Cl)c1,-17%
Cc1ccccc1C(=O)N1CCCC(Nc2ccc(F)cc2)C1 (configuration not stated),3%
Cc1ccccc1NC(=O)c1ccc2c(c1)OCCN(C1CCC1)C2,-12%[70.6 µM]
CCOc1ccc(CN2C[C@@H](NC(=O)COC)C[C@H]2CO)cc1,-1%
Cc1ccc(-n2nc3n(c2=O)CCN(C(=O)N(C)C)C3)cc1,-18%[70.6 µM]
CN(C)c1ccc(C(=O)NC2CCN(c3cc(-c4ccc(F)cc4)[nH]n3)C2)cc1 (configuration not stated),-19%
Cc1ccc(C(=O)N2CCOC(c3ccc(Cl)c(Cl)c3)C2)c(=O)n1C (configuration not stated),-18%
CC(C)C[C@@H]1N[C@H](C(=O)NC2CCC2)Cc2c[nH]c3cccc1c23,3%[70.6 µM]
Cc1noc(-c2cn(C3CCN(C(=O)c4sccc4C)C3)nn2)n1 (configuration not stated),-15%
CNC1CCc2nn(CC3CC3)c(=O)n2CC1 (configuration not stated),5%
COc1ccc(CNC[C@H]2COCc3nc4cc(F)ccc4n32)cn1,-29%[70.6 µM]
CC(C)N1C[C@H](O)C[C@H]1c1nc(-c2ccc3c(c2)OCO3)no1,0%[70.6 µM]
CCCN(CC1CCOC1)S(=O)(=O)c1cc(OC)ccc1OC (configuration not stated),2%
Cc1nonc1OCCn1cc(C2CCCNC2)nn1 (configuration not stated),-2%
CC(=O)NC(CO)C(=O)N1CCc2onc(-c3cccc4ccccc34)c2C1 (configuration not stated),1%
CC(=O)Nc1ccc(CN2CCN3C(=O)N(c4ccccn4)C[C@H]3C2)cc1,-1%[70.6 µM]
Cn1cccc1C(=O)NCC(=O)N1CCCCCNC(=O)CC1c1ccccc1 (configuration not stated),3%
O=C(NC1CCCC1)N1CCC(Oc2ccc(-c3noc(C4CC4)n3)cc2)C1 (configuration not stated),8.9µM*
O=C(Cc1cccc(F)c1)NC1CCCN(c2cc(-c3ccc(F)cc3)[nH]n2)C1 (configuration not stated),2%
COCCNC(=O)C[C@@H]1C[C@H]2O[C@H](CN(C)C)[C@@H](O)[C@H]2O1,-5%[70.6 µM]
CC(=O)N1CCC(Oc2ccc(Cl)cc2C(=O)N(C)Cc2nccn2C)CC1,-2%
COc1ccccc1CCC(=O)N1CCN(C(=O)c2nnn3c2COC(c2ccccc2)C3)CC1 (configuration not stated),-15%
O=C(CCc1ccccc1)N1CCC2(CC1)CC(O)CCO2 (configuration not stated),-2%
COc1ccc(NC(=O)Nc2ccc(C)n(CC(=O)N3CCCN(C)CC3)c2=O)cc1,-8%
CCNC(=O)c1coc(COc2ccc3c(c2)C(c2cccc(C)c2)N(C(=O)C2CC2)CC3)n1 (configuration not stated),?
COCCNC(=O)[C@@H]1CCC[C@@H](NC(=O)C2CCCC2)CN(C)C(=O)C1,2%[70.6 µM]
O=S(=O)(Nc1ncc(CN2CC[C@H]3CNC[C@H]32)cn1)c1ccccc1,-1%
COCCN1CCC(N2CCN(S(=O)(=O)c3ccc(C)c(Cl)c3)CC2)C1=O (configuration not stated),-1%
O=C1NC(C(=O)N2CCN(Cc3ccc4c(c3)OCO4)CC2)Cn2cccc21 (configuration not stated),2%
CCOc1ccc(C(=O)N[C@H]2CCOC[C@H]2C2CCOCC2)o1,0%
Cc1cccc(NC(=O)Cn2ccn3nc(-c4ccc(F)cc4)c(CO)c3c2=O)c1,0%
Cc1nnc([C@@H]2CC(F)(F)CN2C(=O)c2ccc3c(c2)OCO3)o1,5%
COc1cccc(C(=O)N2[C@@H]3CC[C@H]2CC(NC(=O)c2cnc(C)cn2)C3)c1C (some centres not stated),-2%

In another format: results already given.
NPR1 antag	compound
?	O=C(c1ccc2[nH]ccc2c1)N1CCCN(c2cc(-c3ccc(F)cc3)[nH]n2)CC1
-6%	O=C([C@@H]1C[C@H](F)CN1C(=O)c1cccs1)N1CCCCC1
-2%	CCC(NC(=O)c1cnc(-c2ccccc2)nc1-c1ccncc1)c1ccc(OC)cc1 (configuration not stated)
-2%	NC(=O)c1ccc(NC(=O)Cn2nc3c(cc2=O)CCCCC3)cc1
-1%	COc1ccc(CC(=O)N2CCC3(CC2)CC(O)CCO3)cc1 (configuration not stated)
0%	CCNC(=O)N(C1CC1)C1CCOC2(CCN(C(=O)Nc3ccc(OC)cc3)CC2)C1 (configuration not stated)
6%	CCn1ncc(N2CCC(NC(=O)CCOC)CC2)cc1=O
1%[70.6 µM]	CC[C@H]1CN(C(=O)C2CC2)CC[C@H]1CC(=O)NC1CC1
6%	CCc1noc(-c2ccn3c(CNC(=O)CCCc4ccccc4)nnc3c2)n1
0%	COc1cccc(S(=O)(=O)N2CCC(Cc3nncn3C(C)C)C2)c1 (configuration not stated)
7%	CCC(CNc1nc(CCN)nc2ccccc12)N1CCN(C)CC1 (configuration not stated)
1%[70.6 µM]	Cc1nn(CCC#N)c(C)c1[C@@H]1C=C[C@@H](NC(=O)NCc2ccccc2)C1
-4%	COC(=O)c1cc(CN2CCCC3(CCNC3)C2)ccc1O (configuration not stated)

Remaining list, next part:
structure,NPR1 antag
COc1cccc(NC(=O)[C@@H]2C[C@H](c3ccc(F)cc3)N(Cc3csc(C)n3)C2)c1,-9%[70.6 µM]
CCOC(=O)C1(Cc2ccccc2F)CCCNC1 (configuration not stated),-7%
Cc1ccc(-c2nnc3ccc(NCc4cccc(F)c4)nn23)nc1,4%[70.6 µM]
CCn1ccc(C(=O)N2CCC(Cc3nncn3CC3CC3)CC2)n1,-4%
Cn1ncc(N2CCC(C(=O)N3CCc4ccccc43)C2)cc1=O (configuration not stated),-8%
CCOc1ccc(C(CC(=O)O)NC(=O)c2cnc(N(C)C)nc2C)cc1 (configuration not stated),-1%
COc1ccc(NC(=O)Cn2c(N3CCCCC3)nc(C)c(C)c2=O)cc1,-15%
O=C1CCCc2occ(C(=O)N3CC(=O)N(Cc4ccccc4)CC(OCc4ccccn4)C3)c21 (configuration not stated),6%
O=C(NCc1cc(F)cc(F)c1)c1ccc(N2CC3CC(C2)[C@H]2CCCC(=O)N2C3)nc1 (some centres not stated),1%
O=C([C@H]1C[C@H](Oc2ccccc2)CN1C(=O)CCc1ccccc1)N1CCOCC1,-1%
COCc1ncc(C)n1C1CCCNC1 (configuration not stated),6%
CC1(CNCc2ccccc2)COc2ccc(C(=O)NCc3cccs3)cc2N1 (configuration not stated),-11%[70.6 µM]
CCc1cccc(NC(=O)N2CCC(n3cnnc3C3CC3)C2)c1 (configuration not stated),2%
CCNC(=O)N(C1CC1)C1CCOC2(CCN(C(=O)NCc3ccc(OC)cc3)CC2)C1 (configuration not stated),-6%
Fc1ccc(C2Cn3nnc(-c4nc(-c5cccnc5)no4)c3CO2)cc1 (configuration not stated),3%
COc1cccc(C(=O)NC2CCN(c3cc(-c4ccc(Cl)cc4)[nH]n3)C2)c1 (configuration not stated),2%
O=C(NC1CCN(c2cc(-c3ccc(Cl)cc3)[nH]n2)CC1)c1ccc(F)cc1F,-20%
Cc1ccc(-n2c(C3CCN(C(=O)Cc4ccccc4C)CC3)n[nH]c2=O)cc1,0%
O=C(CCN1CCCCO1)N1CCCC(N2CCN(c3ccccc3)CC2)C1 (configuration not stated),3%
COc1ncccc1-c1cc(C(=O)NCCN2CCOCC2)c2c(c1)ncn2C,0%[70.6 µM]
COCc1noc(CC2CCOC3(CCN(C(=O)c4c[nH]c5ccccc45)CC3)C2)n1 (configuration not stated),6%
Cc1cnn(Cc2c(C(=O)N3C[C@@H](C(N)=O)[C@H](c4n[nH]c(C)n4)C3)noc2C)c1,-1%
Cc1ccc(-c2nnc(C3CN(C(=O)C4CCOCC4)CC34CCOCC4)o2)cc1 (configuration not stated),4%
Cc1cc(=O)n(CC(=O)Nc2ccc(C)c(F)c2)c(N2CCOCC2)n1,-1%
Cc1ncoc1C(=O)N1CCCCCCNC(=O)[C@@H]2C[C@@H](c3nc(Cc4ccccc4)no3)C[C@@H]21,-2%
CCN(CC)c1ccc(C(=O)NCc2nnc3cc(-c4nc(C)no4)ccn23)cc1,3%
Cc1nc2c(c(-c3ccc(Cl)cc3)n1)CCN([S+](=O)([O-])c1cccs1)CC2,0%
Cn1ccnc1C(=O)NCC1Cn2cccc2C(=O)N1Cc1ccccc1 (configuration not stated),3%
Cc1nc(N2CCCC3(CN(C)C(=O)O3)C2)cc(-n2cccn2)n1 (configuration not stated),0%
C=CCNC(=O)C[C@@H]1CCN(S(=O)(=O)c2ccccc2)C[C@@H]1CC,4%[70.6 µM]
CC(C(=O)NC1CC1)N1C(=O)COc2ccc(C(=O)COc3cccc(Cl)c3)cc21 (configuration not stated),-16%
CN1CC(=O)N(c2ccccc2F)Cc2c1ncnc2N1CCN(c2ccccn2)CC1,-14%
Cn1nc2c(c1NC(=O)Cn1nc3c(cc1=O)CCCC3)CSC2,2%
O=C(Cc1ccc2c(c1)OCO2)N1CCNc2cnc(Nc3cccc(C(F)(F)F)c3)nc2C1,?
COc1ccc(S(=O)(=O)Nc2ccc(C)n(CC(=O)NCc3ccccc3)c2=O)cc1,0%
COc1ccc(NC(=O)CCC2CCCN(S(=O)(=O)c3ccc(C)cc3)C2)c(OC)c1 (configuration not stated),-2%
Cc1ccc(CN(C(=O)c2ccco2)c2ccc(CC(=O)NC(C)C)cc2)cc1,-11%
CCOCC1(c2nc3c([nH]2)CCCNC3=O)CCC1,1%
COc1ccccc1NC(=O)Cn1c(=O)c(-c2noc(C)n2)c2n(c1=O)CCCC2,7%
O=C(NCCN1CCCC1)C1CN(S(=O)(=O)c2cccs2)CC12CCCCC2 (configuration not stated),-1%
